Compound activity (PubChem BioAssay)
D2 agonist = HTS Assay for Allosteric Agonists of the Human D2 Dopamine Receptor: Primary Screen for Agonists | activation, % at 2 µM | AID 485358, 2010 | D(2) dopamine receptor (Homo sapiens), P14416 | 340,000 compounds, 0.53% hits | HEK293 T-REx D2 cells, calcium flux agonist mode;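 active = activation over 3 SD above normal in the single-dose calcium agonist read, cut at about 30% in these data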; also: 0% is about no effect
Target sequence (P14416 whole entry, looked up): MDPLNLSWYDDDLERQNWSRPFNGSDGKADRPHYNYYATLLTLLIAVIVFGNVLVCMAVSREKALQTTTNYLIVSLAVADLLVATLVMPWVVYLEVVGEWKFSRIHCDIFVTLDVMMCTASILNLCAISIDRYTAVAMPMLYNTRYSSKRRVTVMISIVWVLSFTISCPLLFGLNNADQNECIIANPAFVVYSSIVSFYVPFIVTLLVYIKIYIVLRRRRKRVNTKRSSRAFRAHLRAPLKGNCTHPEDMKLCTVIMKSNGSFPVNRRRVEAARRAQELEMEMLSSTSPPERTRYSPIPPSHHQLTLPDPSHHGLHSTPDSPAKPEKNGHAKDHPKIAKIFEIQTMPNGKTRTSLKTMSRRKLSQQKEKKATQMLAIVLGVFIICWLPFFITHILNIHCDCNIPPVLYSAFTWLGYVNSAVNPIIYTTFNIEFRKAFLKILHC
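Calcium-flux readout, 1 cycle/sec over 180 s following compound pin transfer, in inducible HEK293 Trex D2 cells (force-coupled); dopamine controls included. Positive calcium responses during this window marked compounds as potential agonists.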
TRHR enhancer = qHTS for Small Molecule Agonists and Allosteric Enhancers of Human TRH Receptor: Primary Screen for Enhancers; Thyrotropin-releasing hormone receptor (Homo sapiens), P34981; TRHR cells, fluo-8 calcium fluorescence, EC20 TRH enhancement; enhancement, % at 2 µM; 360,000 compounds, 0.66% hits; AID 493056, 2011; in the data active = enhancement above about 30%; also: 0% is about no effect
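Enhancer read-out: after compound pinning and an initial kinetic agonist-mode read, an EC20 of TRH (10 nM final) was injected and fluo-8 calcium signal (Ex 480/Em 530) followed at 1 s/cycle for 100 cycles in TRHR-expressing cells.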
RXFP1 ag = qHTS Assay for Agonists of the Relaxin Receptor RXFP1; 370,000 compounds, 0.3% hits; AID 2676, 2010; Relaxin receptor 1 (Homo sapiens), Q9HBX9; Potency, µM (top dose mostly 57.5 µM), for the others: top-dose activation, most hits filed as activators; HEK293T-RXFP1 cAMP TR-FRET, 30 min; response scale: percent of porcine relaxin response, buffer zero; active = well fitted activation curve with a large enough effect; inconclusive = small, poorly fitted or top-dose-only effect; also: potency is read from the fitted curve at half-maximal effect; % is scaled to controls: 0 for no effect and ±100 for the full control effect; nearly all actives have a fitted effect of over 60% in size; many of its hits are not listed in these tables
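HEK293 cells stably expressing RXFP1, treated 30 min at 37C with compounds plus PDE4 inhibitor Ro 20174; cAMP measured by HTRF TR-FRET. Normalized to buffer and 29 nM porcine relaxin; EC50 by Hill fit.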
RXFP1 antag = qHTS Assay for Antagonists of the Relaxin Receptor RXFP1. HEK293-RXFP1, relaxin-stimulated cAMP HTRF, 30 min; active compounds read low. activity change, negative = inhibition, % at 57.5 µM. 350,000 compounds, 0.59% hits;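 active = activity change of -60% or lower, but not beyond a set lower limit; inconclusive = change between -60% and -40%, or beyond the set limit; inactive = change above -40%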; also: % is scaled to controls: 0 for no effect and ±100 for the full control effect
D2 antag = HTS Assay for Allosteric Antagonists of the Human D2 Dopamine Receptor: Primary Screen for Antagonists | D(2) dopamine receptor (Homo sapiens), P14416 | HEK293 TREx D2 cells, calcium flux, dopamine EC80 | inhibition, % at 10 µM | 340,000 compounds, 2% hits | AID 485344, 2010; in the data active = inhibition above about 30%; also: 0% is about no effect
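Calcium mobilization kinetics were recorded at 1 s intervals in tetracycline-induced HEK293 T-REx D2 cells, first for 180 s after compound addition and then 180 s after EC80 dopamine.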
D2 PAM = HTS Assay for Positive Allosteric Modulators of the Human D2 Dopamine Receptor: Primary Screen for Potentiators | D(2) dopamine receptor (Homo sapiens), P14416 | HEK293 T-REx D2, calcium flux, EC20 dopamine potentiation | potentiation, % at 10 µM | 340,000 compounds, 0.34% hits;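 active = potentiation over 3 SD above the plate norm, cut at about 30% in these data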; also: 0% is about no effect
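Potentiation of an EC20 dopamine calcium response measured kinetically over 180 s, after a preceding 180 s compound-only read flagging agonists. Cells: inducible Hek293 Trex D2 line, 4000/well, cultured overnight at 30 C before dye loading.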
* = called active by the depositor; ? = inconclusive; nt = not tested or not shown; & = joins results of further samples. These rows are one share of the data (hit frequency here may not be typical).

SMILES	D2 agonist	TRHR enhancer	RXFP1 ag	RXFP1 antag	D2 antag	D2 PAM
CNC(=O)c1c(I)c(C(=O)NCC(=O)Nc2c(I)c(C(=O)O)c(I)c(C(=O)NCCO)c2I)c(I)c(N(C)C(C)=O)c1I	-1.0	-3.1	0.1%	nt	4.8	-5.9
COc1ccc(C(=O)c2ccccc2O)c(O)c1	2.4	3.6	0.4%	-16.4	-1.4	6.1
CCOC(=O)Nc1ccc2c(c1)N(C(=O)CN(C)C)c1ccccc1CC2	-0.3	-0.6	3.2%	nt	-21.0	3.0
CCN(CC)C(=S)SSC(=S)N(CC)CC	3.1	-8.7	2.7%	17.4&37.0	-13.4	21.3
CC(C)n1c(/C=C/[C@@H](O)C[C@@H](O)CC(=O)O)c(-c2ccc(F)cc2)c2ccccc21	0.6	-8.2	2.9%	-2.7	13.0	-2.5
CCN[C@H]1C[C@H](C)S(=O)(=O)c2sc(S(N)(=O)=O)cc21	-1.0	-2.6	0.6%	18.1	5.6	-6.0
O=C1CN(/N=C/c2ccc([N+](=O)[O-])o2)C(=O)N1	2.0	5.2	2.2%	-9.0	7.3	-4.3
CCCCC[C@H](O)/C=C/[C@@H]1[C@@H](C/C=C\CCCC(=O)O)[C@@H](O)C[C@H]1O	0.5	9.1	16.9%	nt	7.8	9.6
CC(=O)O[C@H]1C[C@@]2(C)[C@@H](C[C@@H](O)[C@H]3[C@@]4(C)CC[C@@H](O)[C@@H](C)[C@@H]4CC[C@@]32C)/C1=C(\CCC=C(C)C)C(=O)O	0.1	-4.0	-0.5%	nt	-1.2	12.0
C[C@]12CC[C@@H]3c4ccc(O)cc4CC[C@H]3[C@@H]1CCC2=O	1.5	10.2	1.9%	-7.3	-12.0	4.3
CC(C)c1ccc2oc3nc(N)c(C(=O)O)cc3c(=O)c2c1	-0.1	-4.0	6.5%	?	9.0	-3.0
OC(c1cc(C(F)(F)F)nc2c(C(F)(F)F)cccc12)C1CCCCN1 (stereo not drawn)	1.8	6.2	-0.1%	nt	2.8	-2.1
O=c1[nH]c(=O)n(C2C[C@H](O)[C@@H](CO)O2)cc1C(F)(F)F (stereo partly drawn)	-0.2	-0.2	1.0%	nt	-5.7	-6.6
NCCc1cnc[nH]1	-0.9&4.0	-1.4&10.2	1.5%&5.9%	-39.8	5.7&10.6	-6.3&7.2
O=C(NCC1CCCCN1)c1cc(OCC(F)(F)F)ccc1OCC(F)(F)F (stereo not drawn)	-1.2	-13.4	3.7%	13.8	5.2	-6.3
Cn1nnnc1SCC1=C(C(=O)O)N2C(=O)[C@@H](NC(=O)[C@H](O)c3ccccc3)[C@H]2SC1	-0.9	-2.0	-0.5%	nt	-14.3	-6.5
NC[C@@H]1O[C@H](O[C@H]2[C@@H](O)[C@H](O[C@@H]3[C@@H](O)[C@H](N)C[C@H](N)[C@H]3O[C@H]3O[C@H](CO)[C@@H](O)[C@H](O)[C@H]3N)O[C@@H]2CO)[C@H](N)[C@@H](O)[C@@H]1O	-0.5	0.2	1.2%	nt	2.6	-0.9
CC(=O)Oc1cc(C(C)C)c(OCCN(C)C)cc1C	1.0	3.6	2.7%	-12.9	9.9	-8.2
CC(C)NC[C@H](O)COc1cccc2[nH]ccc12	-0.6	-4.0	0.3%	nt	5.5	8.3
C[C@@H](c1ncncc1F)[C@](O)(Cn1cncn1)c1ccc(F)cc1F	1.4	-0.7	2.2%	nt	8.6	1.5

In the list so far, these contain sulfur.
SMILES	D2 agonist	TRHR enhancer	RXFP1 ag	RXFP1 antag	D2 antag	D2 PAM
CCN(CC)C(=S)SSC(=S)N(CC)CC	3.1	-8.7	2.7%	17.4&37.0	-13.4	21.3
CCN[C@H]1C[C@H](C)S(=O)(=O)c2sc(S(N)(=O)=O)cc21	-1.0	-2.6	0.6%	18.1	5.6	-6.0
Cn1nnnc1SCC1=C(C(=O)O)N2C(=O)[C@@H](NC(=O)[C@H](O)c3ccccc3)[C@H]2SC1	-0.9	-2.0	-0.5%	nt	-14.3	-6.5

More records follow.
SMILES	D2 agonist	TRHR enhancer	RXFP1 ag	RXFP1 antag	D2 antag	D2 PAM
CC(=O)O[C@H]1C[C@@]2(C)[C@@H](C[C@@H](O)[C@H]3[C@@]4(C)CC[C@@H](O)[C@@H](C)C4CC[C@@]32C)/C1=C(\CCC=C(C)C)C(=O)O (stereo partly drawn)	-1.4	3.1	2.1%	nt	-9.7	7.8
O=C(CO)C(O)C(O)C(O)CO (stereo not drawn)	-0.8	1.8	0.5%	nt	-2.7	-7.3
O=C1OCCN1/N=C/c1ccc([N+](=O)[O-])o1	nt	4.7	0.8%	12.9	nt	nt
C=CCOc1ccccc1OCC(O)CNC(C)C (stereo not drawn)	-0.6	3.3	1.3%	-13.1	5.7	-14.2
Cc1cc(C)cc(N2C(=O)CC(Sc3ncn[nH]3)C2=O)c1 (stereo not drawn)	0.7	12.1	-0.4%	-11.9	6.4	-0.9
Cc1cc(/C=C\c2ccc3cc(N(C)C)ccc3[n+]2C)c(C)n1-c1ccccc1	2.0	-1.9	11.9%	nt	-6.8	-4.1
CCCc1nn(C)c2c(=O)[nH]c(-c3cc(S(=O)(=O)N4CCN(C)CC4)ccc3OCC)nc12	0.2	-8.9	0.6%	-19.0	29.7	-5.1
CC(C)N1CCN(c2ccc(OCC3COC(Cn4cncn4)(c4ccc(Cl)cc4Cl)O3)cc2)CC1 (stereo not drawn)	nt	nt	nt	-5.5	nt	nt
CC(=O)NC[C@H]1CN(c2ccc(N3CCOCC3)c(F)c2)C(=O)O1	-0.4	0.1	0.0%	nt	2.4	8.0
NCCCC(N)(C(=O)O)C(F)F (stereo not drawn)	-3.8	-1.1	-0.7%	-30.1	-10.1	-12.4
COc1ccccc1OC[C@H](O)CO	-1.3	-2.4	0.3%	nt	-12.0	-5.8
COc1cc(NS(=O)(=O)c2ccc(N)cc2)nc(OC)n1	0.5	-3.3	2.4%	26.5	-11.0	4.9
COCCOC(=O)C1=C(C)NC(C)=C(C(=O)OC(C)C)C1c1cccc([N+](=O)[O-])c1 (stereo not drawn)	1.3&0.6	-6.6&-0.4	2.0%&-1.4%	28.9	-3.0&-15.3	-13.2&3.7

Compound profiles, as listed above. Order of screens: D2 agonist	TRHR enhancer	RXFP1 ag	RXFP1 antag	D2 antag	D2 PAM
Profile of CC(=O)NC[C@H]1CN(c2ccc(N3CCOCC3)c(F)c2)C(=O)O1 : -0.4	0.1	0.0%	nt	2.4	8.0
Profile of CC(=O)O[C@H]1C[C@@]2(C)[C@@H](C[C@@H](O)[C@H]3[C@@]4(C)CC[C@@H](O)[C@@H](C)C4CC[C@@]32C)/C1=C(\CCC=C(C)C)C(=O)O (stereo partly drawn) : -1.4	3.1	2.1%	nt	-9.7	7.8

Some of the entries so far, in CSV form:
SMILES,D2 agonist,TRHR enhancer,RXFP1 ag,RXFP1 antag,D2 antag,D2 PAM
CCN(CC)C(=S)SSC(=S)N(CC)CC,3.1,-8.7,2.7%,17.4&37.0,-13.4,21.3
CC(C)n1c(/C=C/[C@@H](O)C[C@@H](O)CC(=O)O)c(-c2ccc(F)cc2)c2ccccc21,0.6,-8.2,2.9%,-2.7,13.0,-2.5
